# Assay outcomes deposited in PubChem by several laboratories.
# ALR inh – human ALR oxidase inhibition via reduced H2O2. P55789. purified ALR, DTT oxidation, H2O2 HRP-luminol luminescence. inhibition, % (concentration not given with the values). 3.8% of 290,000 active. AID 485317;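 active = mean and each replicate at 75% or more; inconclusive = only one of the two met; inactive = neither met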;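 note: stock transfer was 7.5 nL into about 7.5 µL; 0% = neutral wells and 100% = wells with inactivated enzyme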
# RanGTP-Imp inh – disruptors of Ran-importin-beta complex formation – biochemical, FRET, CFP-Ran, YFP-importin-beta, homogeneous, primary screen | cell-free CFP-Ran/YFP-importin-beta FRET ratio | inhibition, % (no concentration beside the values) | 1.1% of 300,000 active | AID 2216;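 active = most replicates above 15%; inconclusive = exactly half above 15%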;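 note: 0% = DMSO wells and 100% = Ran loaded with GDP instead of GTP; wells of about 40 µL received 100 nL stock; the first replicate is given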
# LANA-H2B inh – blocks KSHV LANA binding to histone H2A/H2B. Q9QR71. cell-free LANA-H2A/H2B peptide, fluorescence polarization. inhibition, % (concentration not given with the values). 0.6% of 320,000 active. AID 2629; in the data active = inhibition mostly above about 10%, no sharp cut-off; inactive = mostly below about 6.7%;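 note: stock transfer was 7.5 nL into about 10 µL; 0% = median of vehicle wells and 100% = median of positive control wells; one replicate is shown; the record names a cut of 25% in any replicate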
# Target sequence (Q9QR71 whole entry, looked up): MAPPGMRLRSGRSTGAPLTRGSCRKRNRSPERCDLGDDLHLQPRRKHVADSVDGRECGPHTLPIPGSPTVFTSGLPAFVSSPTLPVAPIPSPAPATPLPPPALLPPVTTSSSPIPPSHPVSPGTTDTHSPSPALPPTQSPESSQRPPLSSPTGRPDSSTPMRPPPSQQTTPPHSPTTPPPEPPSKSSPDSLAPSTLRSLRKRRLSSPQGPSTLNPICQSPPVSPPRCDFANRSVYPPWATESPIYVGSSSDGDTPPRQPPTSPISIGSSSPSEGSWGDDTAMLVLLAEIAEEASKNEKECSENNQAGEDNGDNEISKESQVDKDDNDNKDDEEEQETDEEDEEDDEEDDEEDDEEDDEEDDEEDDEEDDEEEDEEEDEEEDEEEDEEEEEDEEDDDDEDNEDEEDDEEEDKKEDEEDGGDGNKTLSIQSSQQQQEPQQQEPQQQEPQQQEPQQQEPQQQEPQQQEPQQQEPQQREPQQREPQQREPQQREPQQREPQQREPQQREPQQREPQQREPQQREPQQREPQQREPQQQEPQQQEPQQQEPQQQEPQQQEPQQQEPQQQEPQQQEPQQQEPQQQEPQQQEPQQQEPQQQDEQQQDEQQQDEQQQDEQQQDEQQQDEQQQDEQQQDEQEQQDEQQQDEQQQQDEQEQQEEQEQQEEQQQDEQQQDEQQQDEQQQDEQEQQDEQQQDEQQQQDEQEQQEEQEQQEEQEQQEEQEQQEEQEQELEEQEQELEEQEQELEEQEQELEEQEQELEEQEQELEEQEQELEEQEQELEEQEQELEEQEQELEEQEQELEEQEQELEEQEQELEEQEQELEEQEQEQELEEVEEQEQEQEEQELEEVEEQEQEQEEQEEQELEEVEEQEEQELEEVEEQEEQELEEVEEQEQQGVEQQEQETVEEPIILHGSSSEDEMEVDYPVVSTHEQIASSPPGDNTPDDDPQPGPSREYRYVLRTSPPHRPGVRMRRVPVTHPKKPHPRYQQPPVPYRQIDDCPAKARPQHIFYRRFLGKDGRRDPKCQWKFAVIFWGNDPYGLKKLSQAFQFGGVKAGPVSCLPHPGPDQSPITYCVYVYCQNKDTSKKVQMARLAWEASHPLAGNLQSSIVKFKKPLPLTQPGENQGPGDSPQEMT
# HNF4A DNA FP – change in binding of human HNF4 alpha to DNA. HNF4a-FITC DNA binding, fluorescence polarization, 1 h. 0.3% of 360,000 active. P41235. activity change, % at 10 µM. AID 1224865; in the data active = activity change above about 30%, passing the limit was not always enough;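 note: controls were the assay level and a saturating level of protein; the project sought stronger binding though the title names inhibitors; some compounds called inactive have numbers as strong as hits; positive values seem to mean higher polarization but the record does not say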
# Vif A3G – inhibitors of Vif binding to APOBEC3G peptide, primary screen, biochemical, TR-FRET, GST-Vif 1-94, biotin-A3G peptide, dose response retest (AID 1117319); TR-FRET GST-Vif / biotin-A3G peptide binding; higher % means a stronger effect; test concentration not given here; strong numbers were not always called active; 0.57% of 260,000 active; inhibition, %, or IC50 in µM where a hit was titrated;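 active = above the screen mean plus three standard deviations and confirmed in dose response; inconclusive = results disagree or hit not tested in dose response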;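 note: Vif residues 1-94 fused to GST binding biotinylated APOBEC3G peptide 110-148; 0% = full assay without inhibitor and 100% = GST in place of GST-Vif; retest series ran down from 100 µM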
# Calb FLC – C. albicans growth modulation with fluconazole; growth inhibition, % (test concentration not listed); C. albicans CaCi-2 (fluconazole-resistant clinical isolate) + fluconazole, Alamar Blue growth, 48 h; AID 1979; 0.57% of 300,000 active;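 active = most replicates above 75%; inconclusive = exactly half above 75%; inactive = most below 75%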;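 note: all wells also contain fluconazole at 8 µg/ml as a sub-toxic cotreatment; 0% = median of DMSO wells and 100% = median of geldanamycin control wells; wells of about 8 µL received 7.5 nL stock; the first replicate is given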
# Beta2AR agonist – activates human beta-2 adrenergic receptor causing internalization. P07550. 0.43% of 340,000 active. Am2.2-beta2AR cells, FAP receptor internalization, flow cytometry; reference of the scale not given here. response, % (no concentration beside the values);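 active = response above a set limit, near 3 SD of response in nonfluorescent compounds, cut at about 42% in these data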;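 note: stock transfer was 100 nL into about 11 µL; a reference agonist was the positive control; negative values mostly stem from fluorescent compounds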
# Starred values were filed as active, the others as inactive; u = inconclusive; x = not tested or not shown. Compounds were not picked by outcome. Share with any hit: about 6.3%.
Molecule	ALR inh	RanGTP-Imp inh	LANA-H2B inh	HNF4A DNA FP	Vif A3G	Calb FLC	Beta2AR agonist
O=C(CCCN1C(=O)/C(=C\c2cccs2)SC1=S)Nc1cc([N+](=O)[O-])ccc1O	-7	0.5	2.5	-8.9	x	-6	0
N/C(=N\N=C\c1ccc2c(c1)OCO2)SC1CC(=O)N(c2ccc(C(=O)O)cc2)C1=O (stereo not given)	3	1.9	4.3	-2.4	-3%	0	0
COc1cc(CNCCc2ccc(S(N)(=O)=O)cc2)ccc1OCC(=O)NC1CCCCC1	51	-1.6	2.6	0.2	3%	-5	-7
COc1ccc(C)cc1S(=O)(=O)n1cnc(C)c1	-2	-1.9	7.5	-1.9	x	-2	-9
COc1cc2c(cc1OC)CC(C(=O)NCc1ccccc1)NC2 (stereo not given)	-6	2.2	2.2	-5.4	-8%	-9	5
CN(C)c1nc(Oc2ccc(=O)n(-c3ccccc3)n2)nc(N2CCOCC2)n1	-31	7.4	6.4	2.8	-3%	1	-6
CCCCN(CC)C(=O)Cn1cnc2sc(C)c(S(=O)(=O)N3CCC(C)CC3)c2c1=O	x	0.9	-3.2	1.4	-5%	8	0
CCc1nc(SCC(=O)Nc2cc(C)on2)c2c(=O)n(C)c(=O)n(C)c2n1	15	1.6	-1.2	3.7	7%	-1	6
Cc1ccc(-c2csc(/C(C#N)=C(\O)CN3CCN(C(=O)c4ccco4)CC3)n2)cc1	99*	-2.8	-1.0	4.4	31%	1	0
CN(c1ccccc1)S(=O)(=O)c1cccc(NC(=O)CCN2C(=O)C3CCCCC3C2=O)c1 (stereo not given)	-3	1.0	-3.0	3.2	1%	2	-1
CC(C)OCCCNC(=O)c1ccc(NC(=O)C2CCCO2)cc1 (stereo not given)	-9	-1.4	-2.5	4.1	-2%	-8	-4
Cc1cc(C)c(C#N)c(Oc2ccc(F)cc2)n1	-3	12	0.2	-4.6	19%	-11	5
COc1ccc(CSc2nc3ccccc3c(=O)[nH]2)cc1F	-7	-3.5	4.5	3.8	3%	-6	2
Cc1cc(C)cc(-c2nnc(SCC(=O)Nc3cc(C)on3)o2)c1	x	x	x	3.6	5%	x	-7
CCOC(=O)C1=C(c2ccccc2)Nc2ncnn2C1c1ccc(C(=O)O)cc1 (stereo not given)	12	1.2	1.5	0.5	x	2	6
CC(C)CN1CCN(Cc2cccc3nccnc23)CC1CCO (stereo not given)	-7	1.0	2.6	-4.2	12%	-18	7
COc1ccc(NC(=O)c2nnn(Cc3cccc(F)c3)c2N)c(OC)c1	x	-1.5	0.9	-0.5	-1%	1	4
Cc1ccsc1/C=N/NC(=O)CN1CCN(Cc2ccccc2)CC1	7	0.7	-8.4	-3.0	-6%	0	-7
CCN1C(=O)C2(C(C(=O)c3cc4ccccc4o3)=C(O)C(=O)N2CCCN2CCOCC2)c2ccccc21 (stereo not given)	x	-5.5	-0.2	1.5	-72%	-26	-2
c1ccc(-c2nnnn2-c2ccccn2)cc1	x	x	x	3.3	-3%	x	-14
CC1CCN(S(=O)(=O)c2ccc(C(=O)OC(C)C(=O)N(C)C3CCCCC3)cc2)CC1 (stereo not given)	-7	6.3	-2.8	-1.4	0%	-2	3
CCC1COCCS(=O)(=O)N1Cc1ccccc1F (stereo not given)	-11	-1.1	1.4	-2.7	x	5	4
Cc1onc(-c2c(F)cccc2Cl)c1C(=O)NC(=S)NC1CCS(=O)(=O)C1 (stereo not given)	18	2.4	-0.6	2.5	u	2	0
Cc1cc([N+](=O)[O-])nn1CC(=O)NNC(=S)Nc1ccc(Cl)cc1	u	0.3	1.6	2.5	9%	20	6
C[C@@]12CC(=O)NC1N(C(=O)c1cccc(C(F)(F)F)c1)C(c1ccccc1OC(=O)c1cccc(C(F)(F)F)c1)C2 (stereo not given in full)	-3	3.5	10	1.0	-2%	5	-1
Cc1ccc(N2C(=O)N(CC(=O)Nc3cc(C)cc(C)c3)C(=O)C2C)cc1 (stereo not given)	-2	-0.9	-0.5	-2.2	10%	-16	-3
CCOC(=O)C1=C(COC(=O)/C=C/c2cccc(F)c2)NC(=O)NC1C (stereo not given)	-1	x	0.3	4.9	-9%	x	-5
Cn1c(=O)c2ccccc2n(CC(=O)NCCC2=CCCCC2)c1=O	x	9.6	-5.2	-0.1	x	9	-6
Nc1nc(SCc2nc3scc(-c4cccs4)c3c(=O)[nH]2)n[nH]1	-11	-0.5	-0.7	1.1	14%	-3	12
COc1ccc(OCC(=O)NNC(=O)c2cccc(O)c2)cc1	1	2.2	-0.2	3.5	10%	-17	24

# Structural class, the compounds so far with an aryl thioether with sulfur outside any ring.
Molecule	ALR inh	RanGTP-Imp inh	LANA-H2B inh	HNF4A DNA FP	Vif A3G	Calb FLC	Beta2AR agonist
CCc1nc(SCC(=O)Nc2cc(C)on2)c2c(=O)n(C)c(=O)n(C)c2n1	15	1.6	-1.2	3.7	7%	-1	6
COc1ccc(CSc2nc3ccccc3c(=O)[nH]2)cc1F	-7	-3.5	4.5	3.8	3%	-6	2
Cc1cc(C)cc(-c2nnc(SCC(=O)Nc3cc(C)on3)o2)c1	x	x	x	3.6	5%	x	-7
Nc1nc(SCc2nc3scc(-c4cccs4)c3c(=O)[nH]2)n[nH]1	-11	-0.5	-0.7	1.1	14%	-3	12

# Limited to Vif A3G and Calb FLC, for 2 of the compounds above:
molecule	Vif A3G	Calb FLC
C[C@@]12CC(=O)NC1N(C(=O)c1cccc(C(F)(F)F)c1)C(c1ccccc1OC(=O)c1cccc(C(F)(F)F)c1)C2 (stereo not given in full)	-2%	5
Cc1ccc(N2C(=O)N(CC(=O)Nc3cc(C)cc(C)c3)C(=O)C2C)cc1 (stereo not given)	10%	-16

# Carrying on:
Molecule	ALR inh	RanGTP-Imp inh	LANA-H2B inh	HNF4A DNA FP	Vif A3G	Calb FLC	Beta2AR agonist
Cc1cc(NCC(c2ccccc2)c2ccccc2)n2ncnc2n1	-5	-1.7	4.1	-2.6	x	24	0
Cc1ccc(S(=O)(=O)NCc2ccncc2)c(C)c1C	-1	-0.1	1.1	0.8	4%	35	-3
Cc1ccccc1NC(=O)Cc1nc(COC(=O)Cc2c(F)cccc2Cl)cs1	x	x	-0.6	3.3	-1%	x	-1
O=C(NCC(c1ccco1)N1CCc2ccccc2C1)c1ccccc1Br (stereo not given)	-2	1.5	0.9	-1.0	-5%	2	-2
C1CCCCCC2(CCCCC1)OCC(CN1CCOCC1)O2 (stereo not given)	x	4.1	x	0.6	15%	9	-2
Cc1ccc(CONC(=O)c2cccc(C)c2)cc1	3	x	3.9	-1.6	-4%	x	-1
COc1cccc(C(O)c2nc3ccccc3n2C(C)C)c1OC (stereo not given)	2	4.3	-2.5	-1.2	x	12	-3
COc1cccc(/C=N/NC(=O)c2cc(-c3cccn3C)n[nH]2)c1	-2	7.0	-7.3	3.5	-1%	-2	13
Cc1nn(-c2ccccc2)c(CC(C)(C)C(=O)O)c1C(=O)O	1	3.0	1.2	0.3	-2%	-1	-5
COc1cccc(Nc2nc(N)c([N+](=O)[O-])c(N3CCOCC3)n2)c1	x	2.2	-3.3	-3.6	5%	3	13
COCCN(C(=O)CC1CCCCC1)c1c(N)n(CC(C)C)c(=O)[nH]c1=O	-3	x	-4.5	-2.8	-14%	x	4
Cc1ccc(NC(=O)N2CCC(=O)N2)cc1	17	-3.5	-0.2	0.0	10%	-17	-4
O=C(O)/C=C/C(=O)Nc1ccccc1-c1ccccc1	x	2.1	x	3.0	0%	-3	-6
COC(=O)C(C)(C)ONC(=O)Nc1ccc(Br)cc1	-6	-2.2	-0.2	2.8	x	-19	10
CC(C)CCNC(=O)C(=O)NCC1OCCCN1S(=O)(=O)c1cccs1 (stereo not given)	1	5.5	-2.3	0.6	x	1	-1
COc1cc(CCNC(=O)c2cnn3ccccc23)cc(OC)c1OC	-43	5.9	-1.4	1.3	-3%	8	11
CCOC(=O)c1cc(C)n(CCc2ccccc2)c1C	23	-1.9	4.9	-3.0	17%	0	-1
COc1ccc(NC(=O)C2(c3ccc(NC(=O)c4ccc(C)cc4)cc3)CCCC2)cc1	0	2.4	2.2	-0.3	-5%	-9	5
C/C(=N\NC(=O)c1c(Cl)c(C)nn1C)c1ccc(NC(=O)c2ccncc2)cc1	u	0.0	0.8	1.5	x	-1	6
CCOC(=O)/C(C)=N/Nc1nc(-c2ccc(NC(C)=O)cc2)cs1	99*	-3.2	0.7	4.4	1%	1	1
C=CCNC(=O)C(=O)NCCCN1CCOCC1	-9	-2.2	-1.9	1.9	7%	29	-3
CCOC(=S)SCc1cn2ccc(C)cc2n1	99*	21*	6.3	-3.5	u	-24	-14
COC(=O)c1ccc(NC(=O)C(=O)N2CCCC2)cc1	0	1.0	3.7	0.0	4%	-2	-3
COc1cc(NS(=O)(=O)c2ccc(Nc3nc(-c4ccccn4)cs3)cc2)nc(OC)n1	28	2.4	0.6	-1.1	-10%	12	-2
COc1ccc(CN(C2CCCC2)S(=O)(=O)c2ccc(-n3cnnn3)cc2)cc1OC	4	1.6	-5.6	-4.6	12%	67	5
COC(=O)c1ccc(NS(=O)(=O)c2ccc(OC)cc2)cc1	-7	0.3	-0.6	2.9	-1%	-2	2
Cc1ccc2oc(-c3cccc(NC(=O)Cc4cccs4)c3)nc2c1	-13	u	0.2	3.3	-3%	4	-10
CC(CCc1ccccc1)N1CCN(C)CC1 (stereo not given)	-2	-3.8	-1.7	2.7	-2%	2	0
COc1ccc([C@@H]2[C@@H](C(=O)C(C)(C)C)N3N=Cc4ccccc4[C@@H]3C23C(=O)OC(C)(C)OC3=O)cc1OC	8	3.0	-2.3	1.5	x	6	-7
COc1ccc(CNC(=O)C(C)OC(=O)CN2C(=O)COc3ccccc32)cc1 (stereo not given)	3	-2.5	-7.2	-3.9	x	1	2

# With a hit mark in RanGTP-Imp inh, among the entries above:
mol,ALR inh,RanGTP-Imp inh,LANA-H2B inh,HNF4A DNA FP,Vif A3G,Beta2AR agonist
CCOC(=S)SCc1cn2ccc(C)cc2n1,99*,21*,6.3,-3.5,u,-14

# Going on with the list.
Molecule	ALR inh	RanGTP-Imp inh	LANA-H2B inh	HNF4A DNA FP	Vif A3G	Calb FLC	Beta2AR agonist
Cc1ccc(SCCC(=O)OCC(=O)Nc2ccc(C(N)=O)cc2)cc1	-1	x	2.1	-1.4	-6%	x	-2
Cc1ccc(Nc2nc(N)nc(CN3CCCCCC3)n2)cc1	9	0.8	-0.1	7.2	-2%	-2	2
CC(C)C[C@H]1CN=C(Nc2ccccc2)N1CC1CCCCCC1	x	x	-2.1	4.0	x	x	5
O=C1CSC(=S)N1/N=C/c1ccc(O)c([N+](=O)[O-])c1	x	x	x	-3.3	u	x	4
O=C(CCc1ccccc1)NC(=S)Nc1ccc(S(=O)(=O)N2CCOCC2)cc1	2	0.8	1.2	-3.9	0%	u	7
COc1cc2c(cc1NC(=O)C(C)NCc1ccccc1)oc1ccccc12 (stereo not given)	-9	-0.4	-2.9	1.1	3%	3	-18
Cc1cc2c(cc1S(=O)(=O)N(C)c1ccccc1)NC(=O)CO2	-6	5.5	5.4	3.8	3%	-4	-1
Cc1ccc(-c2csc(/C(C#N)=C/Nc3ccccc3SC(F)(F)F)n2)cc1	0	-0.8	1.0	0.1	5%	7	4
CCN(CC)c1ccc(C2N(C(=O)N3CCOCC3)CCN2S(=O)(=O)c2ccc(C)cc2)cc1 (stereo not given)	26	-1.6	-1.3	3.7	8%	-19	10
CCOC(=O)c1ccc(N2CCN(c3cc(C)ccc3C)CC2)c(N)c1	-24	-2.3	-2.0	6.1	x	-4	-1
C=CCNC1=C(Cl)C(=O)N(c2cccc(Cl)c2Cl)C1=O	x	-5.8	3.3	0.6	2%	5	-3
